# Sfp PPTase inh: Sfp phosphopantetheinyl transferase inhibition. AID 1490. Potency, µM, for inactives: max response, negative = inhibition, hits mostly inhibitors. actives 3.5% (n = 310,000). Biochemical Sfp PPTase activity, qHTS. Q9F4F7; active = well fitted inhibition curve with a large enough effect; inconclusive = small, poorly fitted or top-dose-only effect, or another doubt; inactive = no such curve, though single readings can be large or run the other way;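 note: the enzyme is Sfp with the accession as filed and its product quenches rhodamine fluorescence; potency is the fitted concentration of half-maximal effect; 0% = enzyme reaction without inhibitor and -100% = no enzyme wells; top concentration of the series not given in the record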
#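 Compounds were incubated with enzyme (final 15 nM) for 15 min at room temperature before substrate addition started the reaction. Fluorescence at 525 nm excitation, 598 nm emission was recorded immediately and after 30 minutes.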
# ClpP mod: qHTS Assay for Activators of ClpP; ATP-dependent Clp protease proteolytic subunit (Bacillus subtilis (strain 168)), P80244; actives 1.9% (n = 340,000); AID 651965, 2013; purified B. subtilis ClpP, FRET peptide cleavage, 20 min; Potency, µM (top dose mostly 57.5 µM), inactives show top-dose activity change, negative = active; active = well fitted falling curve with a large enough effect; inconclusive = small, poorly fitted or top-dose-only effect; inactive = no such curve, though single readings can be large or run the other way; note: potency is the fitted concentration of half-maximal effect; the source files actives as falling curves though it sought activators and does not explain the sign; nearly all actives have a fitted effect of over 65% in size; many hits overshoot -100%
# Target sequence (P80244 whole entry, looked up): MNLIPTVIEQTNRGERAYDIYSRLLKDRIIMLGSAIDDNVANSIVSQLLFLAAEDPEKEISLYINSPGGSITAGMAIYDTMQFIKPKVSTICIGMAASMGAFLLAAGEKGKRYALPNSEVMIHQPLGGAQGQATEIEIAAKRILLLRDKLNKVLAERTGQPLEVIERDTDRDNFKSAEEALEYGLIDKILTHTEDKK
#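 Purified B. subtilis ClpP, 10 microg/mL final in Tris/HCl pH8 with KCl, BSA, glycerol and Tween-20, cleaved an Abz/nitrotyrosine-quenched decapeptide. Fluorescence (ex 320, em 430) was read at 0 and 20 min at room temperature. Delta was normalized to 5.8 microM ADEP and DMSO/no-enzyme controls.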
# PINK1 modulator: modulators of PINK1 expression; Potency, µM (titrated, usually from 76.6 µM), without a hit: at the highest dose activation (PINK1 increase), hits mostly activators; PINK1 immunofluorescence, high-content cytometry, 24 h; actives 0.2% (n = 410,000); active = well fitted activation curve with a large enough effect; inconclusive = small, poorly fitted or top-dose-only effect; inactive = flat fitted curve, though single readings scatter; cell line not stated here;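 note: potency is the fitted concentration of half-maximal effect; % of control where 0% means no effect; nearly all actives have a fitted effect of over 65% in size; a mitochondrial uncoupler was the plate control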
#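 Cells are seeded, rested 12 hours, then given compound at five concentrations or DMSO for 24 hours. After fixation, blocking and antibody staining, PINK1 amount and mitochondrial localization are scored; CCCP serves as control.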
# Menin MLL FP FL: displaces fluorescein MLL peptide from human menin; Fluorescence polarization, fluorescein-MLL peptide displacement from menin; FP activity change, % at 61.4 µM; 290,000 tested, under 10 active; AID 1766; inconclusive = falling polarisation curve, or a change in total fluorescence; inactive = total fluorescence flat and polarisation flat or rising; no compound was filed as active; the % refers to the polarisation; negative = inhibition;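 note: % of control where 0% means no effect; inhibitors lower the polarisation; unlabelled MLL peptide was the positive control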
# gsp agonist: activates gsp, the McCune-Albright syndrome mutation | gsp mutant cells, cAMP HTRF, 30 min; control for the full effect not named in the record | Potency, µM (series often up to 76.9 µM), for inactives: at the highest dose activation (cAMP increase), most hits filed as activators | actives 0.13% (n = 340,000); active = well fitted activation curve with a large enough effect; inconclusive = small, poorly fitted or top-dose-only effect, or another doubt; inactive = no such curve, though single readings can be large or run the other way; cell line not stated here;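 note: phosphodiesterase inhibitor Ro 20-1724 added with compounds to block cAMP breakdown; potency is the fitted concentration of half-maximal effect; nearly all actives have a fitted effect of over 60% in size; about a fifth of the inactives were tested at one dose only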
#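 Cells stably selected in G418 were plated at 2000/well, grown 16-24 hr, then given compounds in DMSO with the PDE inhibitor […] (300 uM solution added) for 30 min at 37C; cAMP was read by HTRF.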
# gsp antag: gsp mutant antagonism. gsp-mutant cells, cAMP HTRF, 30 min; control for the full effect not named in the record. AID 624288. Potency, µM (top dose mostly 76.9 µM), for inactives: at the highest dose activity change, negative = inhibition, usual class: inhibitors. actives 0.4% (n = 340,000); active = falling curve of any shape with a large fitted effect; inconclusive = falling curve, mostly with a smaller effect; inactive = flat or rising curve; cell line not stated here;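 note: intracellular cAMP measured with PDE inhibitor Ro 20-1724 present during compound exposure; potency is the fitted concentration of half-maximal effect; % is set by controls: 0 for no effect and ±100 for the full control effect; nearly all actives have a fitted effect of over 65% in size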
#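 Measurement of cellular cAMP by homogeneous time-resolved fluorescence following a 30 min compound exposure at 37C. The PDE inhibitor […] was present throughout; the assay buffer was DPBS with 0.05% BSA and 0.005% Tween 20.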
# D2 ag: human D2 receptor agonism in beta-arrestin assay; DiscoveRx PathHunter D2 beta-arrestin, luminescence, 90 min; 100% = 57 uM dopamine signal; activation, % (test concentration not listed); P14416; actives 0.084% (n = 360,000); in the data active = activation above about 40%; inconclusive = about 15% to 40%; inactive = below about 15%; note: compound concentration not given in the record; the text of the record calls up to 30% inactive
# Target sequence (P14416 whole entry, looked up): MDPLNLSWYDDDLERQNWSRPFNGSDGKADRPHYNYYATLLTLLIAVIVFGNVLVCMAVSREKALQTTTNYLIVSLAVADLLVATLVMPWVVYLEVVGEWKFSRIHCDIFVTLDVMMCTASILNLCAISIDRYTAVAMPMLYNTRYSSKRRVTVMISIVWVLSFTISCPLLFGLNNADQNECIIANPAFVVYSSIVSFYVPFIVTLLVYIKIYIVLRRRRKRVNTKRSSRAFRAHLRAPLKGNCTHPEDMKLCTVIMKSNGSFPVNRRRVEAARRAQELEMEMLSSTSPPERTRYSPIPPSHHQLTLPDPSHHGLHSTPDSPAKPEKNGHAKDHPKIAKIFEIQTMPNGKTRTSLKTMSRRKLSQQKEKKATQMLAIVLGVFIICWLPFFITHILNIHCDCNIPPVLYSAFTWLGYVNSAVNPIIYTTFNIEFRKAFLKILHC
#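 DiscoveRx PathHunter D2 beta-arrestin cells (2,100/well) attached overnight, then compound-stimulated 90 min at 37 C in HBSS/10 mM HEPES/0.1% Tween-20 buffer; beta-galactosidase complementation read by luminescence after 1 h at ambient temperature. Dopamine 57 uM final (EC100) as control.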
# An asterisk follows results filed as active; u = inconclusive; x = no result given; [ ] = another dose, or the depositor's remark.
SMILES	ClpP mod	gsp agonist	gsp antag	Sfp PPTase inh	Menin MLL FP FL	PINK1 modulator	D2 ag
O=C1/C(=C2/NCCN2C2CC(=O)N(c3ccccc3)C2=O)CC/C1=C\c1ccccc1 (centres undefined)	x	-1%	-9%	13%	-0.2	0.8%	-2.0
CN(C)c1ccc(C(=S)N2CCCC2)cc1Br	0.4%	-10%[15.4 µM]	4%	15%	3.1	4.5%	-2.7
Cc1ccc(S(=O)(=O)N2CCN(CC(O)c3ccccc3)CC2)cc1 (centres undefined)	-1.6%	17%[15.4 µM]	1%	8%	-3.6	-0.3%	2.2
Cc1csc(=O)n1CCC(=O)OCC(=O)Nc1ncc(Cl)cc1Cl	-0.1%	1%	0%	x	x	0.4%	-3.8
O=C(CN1C(=O)c2ccccc2C1=O)Nc1ccccc1C(=O)NC1CCCCC1	-0.4%	-39%[inhibitor]	5%	-1%	-5.9	-0.1%[38.3 µM]	-1.1
O=C(CN(C(=O)c1csnn1)c1ccc(F)c(Cl)c1)NC1CCCCC1	x	7%	14%	6%	x	0.4%	-0.9
O=C(NCCC1=CCCCC1)c1ccc(CN2CCOCC2)cc1	0.0%	-7%	-1%	1%	1.7	5.1%	-3.6
Cc1oc2ccc(OCc3ccccc3Cl)cc2c1C(=O)O	-16%	21%	-5%	6%	-0.9	-0.1%	1.3
C=C(C)CC1(NC(C)c2ccccc2)CCCCC1 (centres undefined)	1.1%	21%	6%	0%	8.3	13%	-5.6
Cc1ccn(CCC(=O)NC2CC(C)(C)Cc3c2cnn3-c2ccccc2C)n1 (centres undefined)	x	14%	-4%	15%	x	3.0%	-1.1
O=C(c1ccco1)N1CCN(C2CN(CCc3ccccc3)S(=O)(=O)C2)CC1 (centres undefined)	0.1%	x	x	x	x	-0.9%	-5.1
Cc1ccc(C)c(C(=O)CC2(O)C(=O)Nc3ccccc32)c1 (centres undefined)	1.0%	u	2%	10%	3.5	3.6%	-0.6
CS(=O)(=O)N(CC(=O)N1CCCC1)c1ccc(OCc2ccccc2)cc1	0.4%	-14%	-8%	5%	2.2	-0.2%[38.3 µM]	-0.8
O=C(NCCS(=O)(=O)NCc1ccc(Cl)cc1)c1ccccc1	x	15%[15.4 µM]	3%	x	x	0.6%	-3.3
CCn1c(N2CCN(S(=O)(=O)c3ccc(F)cc3)CC2)nc2ccccc21	-4.7%	8%[15.4 µM]	-14%	-2%	1.3	-2.7%	2.9
COc1ccc(NS(=O)(=O)c2cccc(C(=O)N3CCCC(C)C3)c2)cc1 (centres undefined)	x	16%[15.4 µM]	-8%	x	x	-1.2%	5.9
Cc1cc(=O)oc2cc(OC(C)C(=O)Nc3ccc(C(N)=O)cc3)ccc12 (centres undefined)	4.4%	-2%	-1%	x	x	0.5%	-1.2
COC(=O)C1=C(C)NC(=O)/C1=C\c1cc(C)n(-c2ccccc2F)c1C	x	-1%[15.4 µM]	13%	-13%	5.7	8.1%	-0.8
Cn1c(CCC(=O)O)nc2cc(S(=O)(=O)N3CCCC3)ccc21	x	u	11%	x	x	-1.9%	-2.0
Cc1cc(N2C(=O)C(O)=C(C(=O)c3cc4ccccc4o3)C2c2ccc(Cl)cc2)no1 (centres undefined)	1.1%	u	24%	8%	x	-1.1%	-6.0
CN(C(=O)Nc1ccc(Cl)cc1Cl)[C@H]1c2cc(Br)ccc2OC[C@H]1CO	-0.6%	-6%	-17%	-5%	10	3.0%[38.3 µM]	-2.2
O=C(NCC(=O)N1CCOCC1)c1ccc(Cl)c(Cl)c1	x	28%	11%	x	x	-1.1%	-1.0
CC(=O)Nc1ccc(NCCc2cccs2)cc1	-0.4%	x	x	x	x	2.4%	-2.0
NS(=O)(=O)c1cccc(NC(=O)c2cccc(Oc3ccccc3)c2)c1	x	-2%[15.4 µM]	x	6%	-4.3	1.2%	0.8
COc1ccc(-c2nc3c(c(SCC(=O)N4CCOCC4)n2)COC(C)(C)C3)cc1	-1.2%	12%	6%	5%	0.9	x	-2.8
CC1CCCC(C)N1/N=C/c1ccc(N(C)C)cc1 (centres undefined)	0.0%	8%[15.4 µM]	-6%	0%	2.1	-0.6%	2.3
COc1ccc(CNC(=O)[C@H](Cc2ccccc2)NC(=O)C2CCNCC2)cc1	x	20%	8%	-6%	0.5	0.3%	-1.5
Brc1ccc(Oc2nsnc2N2CCOCC2)cc1	-2.5%	-28%	-7%	u	0.6	8.1%	-4.1
Cc1ccc2c(c1)NC(=O)C(CC(=O)NCCCN1CCc3ccccc3C1)O2 (centres undefined)	-1.3%	-45%[inhibitor]	-1%	50µM*	-0.8	0.8%	-1.1
COc1ccc(NC(=O)Cn2c(C)cc(=O)c3ccccc32)cc1	3.2%	-15%	-8%	-2%	4.5	-0.7%	3.2
COc1ccc(-c2nc(NC(=O)c3ccc(OCC(=O)Nc4ccc(F)cc4)c(OC)c3)sc2C)cc1	144%	u	47%[activator]	11%	-0.9	-2.7%	5.5
COc1ccc(-c2nnc(SCC(N)=O)n2N)cc1	-0.7%	2%	5%	9%	2.0	0.0%[38.3 µM]	0.0
CCOc1ccc(Nc2nc(CC(=O)OC)cc(=O)[nH]2)cc1	-0.1%	-11%	3%	13%	-1.0	14%	-4.1
O=C(NC(=S)Nc1ccccc1)c1cccs1	x	24%	0%	45µM*	-1.5	1.7%	0.3
CCN(C[C@H]1N[C@@](Cc2ccccc2)(C(=O)OC)[C@H]2C(=O)N(Cc3ccccc3)C(=O)[C@@H]12)S(=O)(=O)c1ccc(-c2ccccc2)cc1	0.8%	x	2%	x	x	-0.6%	-1.7
O=C(CSc1nc2ncccc2[nH]1)NCCc1ccccc1	-7.9%	u	-3%	1%	3.6	1.3%	5.4
O=C(NC(=S)NCc1cccnc1)c1cccc2ccccc12	x	13%	-7%	11%	-4.4	1.6%	-2.3
CCOc1ccc(NC(=O)C2CCCN(S(=O)(=O)c3c(C)n[nH]c3C)C2)cc1 (centres undefined)	0.5%	16%	-9%	7%	-0.1	1.1%	-3.1
CCOC(=O)N1CCC(NC(=O)CNS(=O)(=O)c2ccc(Br)s2)CC1	-0.2%	-36%[inhibitor]	7%	6%	2.5	14%[38.3 µM]	-2.8
CSc1nnc(NC(=O)c2nc(S(=O)(=O)Cc3ccc(C)cc3)ncc2Cl)s1	x	1%[15.4 µM]	16µM*	u	x	-2.0%	0.0
CCO/C=C1\SC(=S)N(c2ccc(Cl)cc2)C1=O	x	-18%	-8%	u	u	1.3%	-5.4
CN(C)c1ncnc2c1ncn2[C@H]1CN(Cc2ccco2)C[C@@H](CO)O1	-3.4%	x	x	x	x	0.2%	-4.9
COCCNC(=O)c1ccc(C(=O)C(=O)c2ccccc2)cc1	-1.3%	2%	2%	5%	2.4	-1.7%	-0.1
COc1ccc(OC)c(-n2c(=S)[nH]c3cc(C(=O)N4CCCCC4)ccc3c2=O)c1	0.7%	-6%[15.4 µM]	-2%	-20%	-2.8	-0.7%	-5.0
CCC(=O)Nc1nnc(/C=C/c2ccc(OC)cc2)s1	x	-19%[15.4 µM]	-3%	3%	3.4	0.3%	5.8
COc1cccc(-c2cccc(NC(=O)C3CCN(Cc4ccc(C)o4)CC3)c2)c1	-2.4%	u	13%	1%	x	0.0%	0.2
CSc1nc2c(c(=O)[nH]c(=O)n2C)n1CCCc1ccccc1	-1.7%	u	8%	4%	1.6	4.9%	-5.0
Cn1ccnc1SCC(=O)Nc1nc2c(F)c(F)c(F)cc2s1	1.3%	24%	14%	8%	3.8	7.1%	4.5
NS(=O)(=O)c1ccc(NC(=S)NC(=O)C2CCCCC2)cc1	x	-46%[inhibitor]	7%	19%	0.8	-0.5%	-4.1
COC(=O)c1ccc(CN2CCCC(C(=O)Nc3cccc(-n4cnnn4)c3)C2)cc1 (centres undefined)	0.4%	-35%	-4%	7%	x	-2.7%	-0.9

# (further entries)
SMILES	ClpP mod	gsp agonist	gsp antag	Sfp PPTase inh	Menin MLL FP FL	PINK1 modulator	D2 ag
CCOP(=O)(OCC)c1nc(-c2ccc(OC)cc2)oc1N1CCOCC1	x	2%	-3%	28%	-3.1	0.1%	-3.2
Cc1cc(C)c(C)c(S(=O)(=O)N2CCC(C(=O)N3CCN(c4ccc(F)cc4)CC3)CC2)c1C	x	-5%[15.4 µM]	2%	x	x	-1.6%	-1.0
CCN(CC)C(=O)C(C)N1c2cccc3cccc(c23)S1(=O)=O (centres undefined)	-14%	1%	x	x	x	2.7%	-4.6
Cc1cccc(C(=O)N2CCN(Cc3ccc4c(c3)OCO4)CC2)c1	-2.3%	-76%	-1%	19%	2.1	-1.1%	-3.4
Cc1ccc(C)c(S(=O)(=O)NCCOC(=O)Nc2sc(=S)n(C)c2C)c1	-1.3%	-6%	-4%	u	4.5	x	1.8
C=CCOc1ccccc1CNCc1cccnc1	0.2%	-27%	10%	13%	5.1	0.8%	-0.3
CCC(=O)Nc1ccc2c(c1)C(=O)N(C)C2=O	28µM*	1%	-9%	11%	5.0	0.7%	1.6
Cc1nn2c(-c3ccncc3)ccnc2c1Br	-2.9%	16%	9%	-3%	-2.6	-0.6%	-4.4
CC(=O)c1ccc(N2CCN(CCC#N)CC2)c(F)c1	-2.4%	-16%	6%	12%	-1.1	4.4%	-2.5
O=C(COc1cccc2c1CCNC2=O)NC1CCCCC1	-18%	-26%	12%	x	x	3.5%	4.7
O=C(Cc1cccs1)NNC(=S)NC(=O)c1ccccc1	-0.7%	-9%	5%	-26%	1.3	2.2%	1.8
CCOc1ccc(S(=O)(=O)Nc2cccc(C(=O)N3CCN(c4ccccc4O)CC3)c2)cc1	-2.1%	-7%	-23%	x	x	-0.1%	5.3
Cc1ccc(C(=O)OCC(=O)NN2C(=O)NC3(CCC(C)CC3)C2=O)cc1 (centres undefined)	-2.7%	-26%	6%	x	x	6.4%	8.4
C=CC(=O)N=c1sc2ccccc2n1-c1ccccc1	x	-6%[15.4 µM]	15%	-1%	4.7	-1.7%	-2.4
